Screening data deposited in PubChem by several laboratories.
eIF4H inh: inhibitors of RNA binding by human eIF4H; Q15056; eIF4H fluorescence polarization binding assay; inhibition, % at 35 µM; 290,000 tested, 0.94% active;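 active = 50% or more with normal probe brightness, or confirmed in later tests; about a fifth of its hits are not listed in these tables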;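 also: calls also rest on retests at 20 µM and on dose response follow-up; 0% = protein and probe with vehicle and 100% = probe without protein; strong numbers were not always called active; many hits fall short of the cut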
Rce1 inh: blocks yeast Ras-converting enzyme; yeast membranes, quenched prenylated peptide cleavage fluorescence; calls only; 290,000 tested, 0.27% active; AID 2563;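 active = fall in fluorescence gain of 50% or more versus controls, with final raw signal at or below 3038400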;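 also: plate controls were neutral control wells for no effect and wells lacking membranes for full effect; tested at 10 µM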
Target sequence (Q03530 whole entry, looked up): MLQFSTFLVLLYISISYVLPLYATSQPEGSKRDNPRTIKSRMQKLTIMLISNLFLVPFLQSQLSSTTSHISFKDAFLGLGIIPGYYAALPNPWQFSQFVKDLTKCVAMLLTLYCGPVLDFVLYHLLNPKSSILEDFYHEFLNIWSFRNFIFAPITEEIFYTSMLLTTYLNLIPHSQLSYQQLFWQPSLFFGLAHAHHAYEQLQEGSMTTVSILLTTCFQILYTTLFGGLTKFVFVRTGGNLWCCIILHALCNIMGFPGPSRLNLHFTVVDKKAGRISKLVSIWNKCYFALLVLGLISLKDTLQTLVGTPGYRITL
Yeast UUG start: alters start codon recognition fidelity in yeast; AID 602363; 350,000 tested, 0.13% active; activity score, % at 18.7 µM; S. cerevisiae UUG-firefly luciferase reporter, luminescence/redox ratio;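 active = replicate mean at a twofold rise or more, about +100% in these data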;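 also: firefly luciferase made from a UUG start codon reports start codon fidelity; reporter light over untreated wells divided by growth signal over untreated wells; some hits fall short of that in this replicate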
PABP polyA inh: PABP-poly(A) binding inhibition | 290,000 tested, 1% active | P11940 | PABP-poly(A) RNA binding, fluorescence polarization | inhibition, % at 35 µM;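 active = 50% or more with normal probe brightness, or confirmed in later tests; about a fifth of its hits are not listed in these tables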;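 also: calls also rest on retests at 20 µM and on dose response follow-up; controls were probe without protein and protein plus probe with vehicle; some compounds called inactive have numbers as strong as hits; many hits fall short of the cut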
MT1-MMP act inh: MT1-MMP (human) activation inhibition; GFP/RFP ratio change, % at 20 µM; HT1080 RFP-PRO-GFP cells, GFP/RFP ratio fluorescence, overnight; percent of plate control window, DMSO zero; AID 651647; P50281; 360,000 tested, 0.061% active;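 active = GFP/RFP ratio change of at least 30% with cell ATP level not reduced by more than half and red fluorescence within 50% of control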; also: strong numbers were not always called active
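Assay system: HT1080 RFP-PRO-GFP cells | Dosing: 20 µM single dose, 1% DMSO | Incubation: Cells overnight before dosing, compound overnight, 37 °C, 5% CO2 | Evaluation: GFP/RFP fluorescence ratio | Control set: DMSO-only wells and HT1080 RFP-L50D-GFP cell wells as references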
Env fusion inh: HIV envelope-mediated fusion inhibition | inhibition, % at 12.3 µM | 360,000 tested, 1.1% active | HeLa-JRFL Env/CEM21 cell fusion, luciferase | AID 651610;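 active = mean replicate inhibition score of at least 50 and every replicate individually at or above 50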;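 also: 0% = plate neutral controls and 100% = maraviroc near 300 nM; one replicate is shown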
CSC inhib: cancer stem cell inhibition. cancer stem cell-like cells viability, luminescence. inhibition, % at 7.5 µM. 300,000 tested, 1.1% active. AID 2717;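 active = mean at 75% or more and at least half the replicates too; tested in HMLE shEcad cells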;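 also: 0% = median of negative and 100% = median of positive control wells; the first replicate is given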
eIF4H inh retest: also measured in eIF4H inh; calls as there; inhibition, %; compound at 20 µM; confirmation average;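 mean of two retest wells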
PABP polyA inh retest: recorded beside PABP polyA inh, whose call it bears; inhibition, %; compound at 20 µM; confirmation repeats;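 mean of two retest wells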
MT1-MMP act inh RFP: second read-out of MT1-MMP act inh, no call of its own (marks repeat the call); RFP signal change, %; measured here: RFP expression control read;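 0 = vehicle wells; hits needed this value within 50% of zero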
An asterisk follows results filed as active; i = inactive; x = not tested or not shown; + = active, no number; & = joins results of further samples. An excerpt, so the mix of outcomes need not match the whole.

SMILES | eIF4H inh | Rce1 inh | Yeast UUG start | PABP polyA inh | MT1-MMP act inh | MT1-MMP act inh RFP | Env fusion inh | CSC inhib | others
COc1cc(C)c(C(C)C)cc1S(=O)(=O)NC1CC(C)(C)NC(C)(C)C1 | -3 | x | -12 | 1 | -1 | 4 | 31 | 19
Cc1ccc(S(=O)(=O)N(CC(O)CN2CCCC2)c2ccccc2)cc1 (stereo not drawn) | -9 | i | -23 | 0 | -3 | 6 | x | 4
S=c1nc(-c2ccccc2Br)[nH][nH]1 | 14 | i | -27 | 2 | 8 | 5 | x | 1
COc1ccccc1CN1CCNC(=O)C1CC(=O)N(C)CC1CCOCC1 (stereo not drawn) | 4 | i | 1 | 1 | 1 | 1 | -23 | -7
C=CCNc1oc(Cc2cccc3ccccc23)nc1C#N | 0 | i | -11 | 1 | -3 | -6 | 4 | 1
O=C(C[C@H]1C[C@@H]2c3cc(NC(=O)c4ccc5c(c4)OCO5)ccc3O[C@@H]2[C@H](CO)O1)NCc1cc(F)ccc1F | x | x | 11 | x | 7 | 4 | 7 | x
CCOc1ccc(C(=O)Nc2ccc(NC(=O)c3cccs3)cc2)cc1[N+](=O)[O-] | -4 | i | -14 | 7 | 2 | 3 | -164 | -5
CC(C)c1c(C(=O)N/N=C/c2ccsc2)nnn1-c1nonc1N | 1 | + | -8 | -10 | -1 | 0 | -4 | -7
O=C(NCc1ccccc1)c1onc(CSc2ccc(F)c(F)c2)c1C(=O)NCc1ccccc1 | x | i | -14 | x | 1 | 5 | 24 | -22
CC(C)C(C(=O)O)N1C(=O)/C(=C/C=C/c2ccco2)SC1=S (stereo not drawn) | 91* | i | x | 79* | 7 | 33 | x | x | eIF4H inh retest=99*;PABP polyA inh retest=91*
OC(COc1ccc2ccccc2c1Br)Cn1ccnc1 (stereo not drawn) | -8 | i | -17 | -6 | -1 | -14 | x | -9
Cn1c(S(=O)(=O)Cc2ccc(Cl)cc2)nc2ccccc21 | 6 | i | -20 | -1 | -5 | -1 | -4 | -11
O=C(NCc1cccnc1)c1cc(C(=O)NCc2cccnc2)cc([N+](=O)[O-])c1 | x | x | -34 | x | -1 | 4 | -3 | x
CNC1=C([N+](=O)[O-])CC([N+](=O)[O-])=C(N2CCNCC2)N1C | -5 | i | x | -7 | 1 | 4 | 15 | -2
Fc1cccc(/C=C2\CCCC3=C2NC(=S)NC3c2cccc(F)c2)c1 (stereo not drawn) | -3 | i | 3 | 11 | 5 | -5 | 1 | -4
CC(C)(C)n1cnc2cc(NC(=O)c3ccccc3)ccc21 | -6 | i | -10 | -9 | 4 | 3 | -50 | 0
CN(C)S(=O)(=O)c1cccc(NC(=S)N/N=C/C(c2ccccc2)c2ccccc2)c1 | 8 | i | 4 | 0 | 0 | 0 | -102 | -6
Cc1cccc(NC(=S)NNC(=O)c2cccc([N+](=O)[O-])c2)c1 | 1 | i | -39 | -10 | 0 | -8 | -16 | x
Cc1cc2cc(CNC(=O)c3ccc(Br)o3)ccc2[nH]1 | 9 | i | 16 | 26 | 15 | 34 | -10 | -1
CN(C)C(=O)Nc1ccc(F)cc1F | -2 | i | -17 | -3 | 6 | 8 | x | -20
CC(=O)Nc1ccc2c(c1)nc(CN1CCCC1)n2C | 7 | i | -14 | 0 | -4 | -1 | 4 | -6
Nc1nc(SCC(=O)c2ccc(Br)s2)n[nH]1 | -11 | i | x | -4 | 0 | 4 | 6 | -6
COc1ccc(C(CNC(=O)c2cccc(S(=O)(=O)NCc3ccccc3)c2)N2CCOCC2)cc1 (stereo not drawn) | x | i | -5 | x | 10 | 1 | 4 | x
CC(C)SCc1nc2ccccc2[nH]1 | 0 | x | -19 | 10 | -3 | -4 | x | 5
COc1ccc2[nH]c(=O)c(CN(Cc3cccnc3)C(=O)Nc3ccccc3)cc2c1 | 3 | i | -16 | 0 | 3 | -3 | -161 | -9
COc1cccc(NC(=O)C2(C)CCN2C(C)C)c1OC (stereo not drawn) | x | x | -23 | x | 0 | 5 | -6 | x
CSc1cccc(NC(=O)CSc2ccc(C)cc2)c1 | -10 | i | -20 | -9 | 5 | -1 | -3 | -6
COc1ccc(C(CC(=O)O)NS(=O)(=O)c2ccc3c(c2)NC(=O)CO3)cc1 (stereo not drawn) | -4 | i | -21 | 1 | -7 | -6 | 10 | x
COc1ccc(N2CCN(c3nc4ccc(C)cn4c(=O)c3C=O)CC2)cc1 | 78 | i | x | 5 | 0 | -1 | -12 | -6 | eIF4H inh retest=-10;PABP polyA inh retest=10
CCOC(=O)C1(CCc2ccccc2)CCN(C(=O)C2CCCO2)CC1 (stereo not drawn) | 5 | i | x | 3 | 2 | 22 | 14 | -6
Cc1cc(C)n2c(SCc3ccc(Cl)cc3Cl)nnc2n1 | 1 | i | 7 | -6 | 3 | -9 | x | 4
CC12CCC(=O)N1C(C(=O)Nc1ccccc1N1CCCC1)CS2 (stereo not drawn) | x | x | -24 | x | -3 | 0 | 0 | x
CCOc1ccc(NC2=C(Cl)C(=O)N(Cc3ccccc3)C2=O)cc1 | 4 | x | x | 13 | 10 | -2 | x | -8
Cn1c(=O)n(C)c2cc(S(=O)(=O)Nc3cc(Cl)ccc3O)ccc21 | 1 | i | x | 1 | -4 | -1 | 8 | -2
CCOC(=O)c1c(C)[nH]c(C(=O)CN2CCN(CC)CC2)c1C | 2 | i | -2 | -5 | 1 | 2 | -8 | 7
O=Cc1coc2ccc3ccccc3c2c1=O | -5 | i | -34 | 31 | -10 | -2 | 2 | -4
O=C(Cn1cnc2ccccc2c1=O)N1CCN(Cc2ccc3c(c2)OCO3)CC1 | -4 | i | -6 | 3 | -2 | 0 | x | -23
CSc1ccc(NC(=O)C2(C)CCN2C(=O)c2ccccc2CCc2ccccc2)cc1 (stereo not drawn) | x | x | -1 | x | 2 | -2 | 10 | x
Cc1cccc(C)c1Nc1nnc(SC/C(O)=C(\C#N)c2nc3ccccc3[nH]2)s1 | 51 | i | -16 | -5 | -11 | 3 | x | 4 | eIF4H inh retest=42;PABP polyA inh retest=25
Cc1cccc(OCC(=O)Nc2ccc3c(c2)nc(CCN2CCC(C)CC2)n3C)c1 | -11 | i | -16 | -3 | 2 | -5 | 14 | 2
COc1ccc(-n2cccc2C=O)cc1OC | -11 | i | -14 | 3 | 2 | 2 | -149 | 4
COc1cc(/C=N/NC(=O)c2cc(-c3ccccc3Cl)nc3ccccc23)cc(OC)c1O | x | i | x | x | -2 | 2 | 14 | -10
COC(=O)c1ccc(N2C(=O)CC(N3CCN(C(=O)c4ccco4)CC3)C2=O)cc1 (stereo not drawn) | -6 | i | -15 | 10 | 6 | 2 | -25 | x
CN(C)Cc1cc(O)c(CN(C)C)cc1O | 80 | i | x | 44 | -5 | 4 | 1 | -12 | eIF4H inh retest=0;PABP polyA inh retest=-2
COc1ccc(C(=O)Nn2c(SCC(=O)NC3CCCCC3)nc3ccccc3c2=O)cc1 | -8 | i | -58 | -2 | 9 | 6 | -49 | 18
C[C@@H]1CN([C@@H](C)CO)C(=O)c2cc(NC(=O)CCN3CCOCC3)ccc2O[C@@H]1CN(C)C(=O)Nc1ccccc1 | x | x | -13 | x | 6 | 2 | -11 | 7
CN(C)c1ccc(CNC(=O)C2(C)Cc3c(-c4ccccc4)ccnc3O2)cc1 (stereo not drawn) | x | x | -11 | x | -3 | -10 | -95 | x
O=C(CN(C(=O)CCC(=O)Nc1nccs1)c1ccccc1F)NCc1ccc(F)cc1 | -3 | i | -16 | 7 | -2 | -4 | 22 | 5
N#Cc1c2ccc(OCC(N)=O)cc2n2ccccc12 | 32 | i | -17 | -5 | -8 | -3 | -15 | -4
Nc1ccc(Oc2ccc(N)c([N+](=O)[O-])c2)cc1[N+](=O)[O-] | x | x | -25 | x | 5 | -3 | 3 | x
Cn1ccc(-c2cc(C(=O)O)c3ccccc3n2)n1 | 7 | i | -12 | -4 | 0 | -1 | 0 | 5
Cc1cc2nnc(SC3CCOC3=O)n2c2ccccc12 (stereo not drawn) | 10 | i | -21 | 13 | 1 | 1 | -53 | -9
O=C(O)c1ccccc1C=NNc1ccccn1 | x | x | -21 | x | 0 | 2 | -6 | x
CC(=O)Nc1ccc(-c2ccnc3c2CC(C)(C(=O)NCc2ccc(F)c(F)c2)O3)cc1 (stereo not drawn) | x | x | -23 | x | -9 | -12 | 4 | x
Cc1ccc(C)c(OCC(=O)Nc2ccncc2)c1 | -5 | i | -20 | 2 | 0 | -9 | -15 | -5
NC(=O)C1CCN(C(=O)CC2C(=O)NCCN2Cc2cccc(Oc3ccccc3)c2)CC1 (stereo not drawn) | 2 | i | -9 | 11 | 0 | 0 | 3 | -11
C[C@H]1CN([C@@H](C)CO)C(=O)c2cc(Br)cnc2O[C@H]1CN(C)S(=O)(=O)c1cccs1 | x | x | -19&-4 | x | -6 | 2 | 21 | x
COc1ccccc1N1CCN(C(=O)CCNS(=O)(=O)c2cc(Br)cnc2N)CC1 | -7 | i | 21 | 5 | x | x | 6 | 3
CC1CCC(CN2CCN=C2Nc2ccccc2)CC1 (stereo not drawn) | -1 | i | -1 | 1 | 3 | 10 | -18 | -5
Cc1cc(N2CCC(C)CC2)c(F)cc1[N+](=O)[O-] | 0 | i | -4 | 8 | 11 | 3 | 14 | x
Other entries
SMILES | eIF4H inh | Rce1 inh | Yeast UUG start | PABP polyA inh | MT1-MMP act inh | MT1-MMP act inh RFP | Env fusion inh | CSC inhib | others
COC(=O)c1ccc2nc(NC(=O)CSCC(=O)OCC(=O)c3ccccc3)sc2c1 | 26 | i | 3 | -1 | -1 | 7 | 15 | 5
CN1C(=O)C(=O)/C(=C(/O)c2ccccc2)C1c1ccc([N+](=O)[O-])cc1 (stereo not drawn) | 0 | i | -28 | 15 | 1 | 5 | -4 | x
Cc1ccc(C(=O)NC2(C(F)(F)F)NC(=O)N(c3ccc(Cl)cc3)C2=O)cc1 (stereo not drawn) | 12 | i | x | 5 | 5 | 6 | 22 | 5
Cc1ccc(-n2c([S-])c(C(=O)NC(C)c3ccccc3)[n+]3ccccc23)cc1 (stereo not drawn) | 1 | i | -5 | 7 | 0 | -1 | 8 | -4
CN(C)C(=O)c1ccc(N=Nc2c(O)c3ccccc3[nH]c2=O)cc1 | x | x | -16 | x | -13 | 0 | 16 | x
CCCCn1c(N(CCOC(C)=O)C(C)=O)nc2ccccc21 | x | i | 13 | x | 0 | 3 | -5 | -7
COC(c1ccccc1)c1c(-c2ccccc2)nn(C)c1Cl (stereo not drawn) | 11 | i | x | 2 | -1 | -1 | -22 | 0
CC(C)(C)c1csc(NC(=O)C2COc3ccccc3O2)n1 (stereo not drawn) | 2 | i | -2 | 1 | -30 | -24 | -39 | x
CCS(=O)(=O)n1nc(-c2ccc(Cl)cc2)nc1SCc1ccccc1 | 5 | i | x | -3 | x | x | x | -11
CC(=O)Nc1ccc(S(=O)(=O)NN=c2sc3ccccc3n2C)cc1N | x | x | -25 | x | 5 | 5 | 17 | x

Gathered by group: the entries above with a furan ring, fused or not.
SMILES | eIF4H inh | Rce1 inh | Yeast UUG start | PABP polyA inh | MT1-MMP act inh | MT1-MMP act inh RFP | Env fusion inh | CSC inhib | others
CC(C)C(C(=O)O)N1C(=O)/C(=C/C=C/c2ccco2)SC1=S (stereo not drawn) | 91* | i | x | 79* | 7 | 33 | x | x | eIF4H inh retest=99*;PABP polyA inh retest=91*
Cc1cc2cc(CNC(=O)c3ccc(Br)o3)ccc2[nH]1 | 9 | i | 16 | 26 | 15 | 34 | -10 | -1
COC(=O)c1ccc(N2C(=O)CC(N3CCN(C(=O)c4ccco4)CC3)C2=O)cc1 (stereo not drawn) | -6 | i | -15 | 10 | 6 | 2 | -25 | x
